From PubChem BioAssay
AmpC nodet inh: inhibitors of E. coli AmpC beta-lactamase without detergent | AID 585 | Potency, µM (doses to about 28.7 µM), inactives show at the highest dose activity change, negative = inhibition | AmpC nitrocefin hydrolysis, absorbance 480 nm, no detergent; potencies from a single point are estimates | hit rate 1.8% among 71,000 | P00811; active = falling curve, for most hits resting on a single point; inconclusive = weak or doubtful change; inactive = flat or rising curve; note: % of control where 0% means no effect; about half of the hits show no inhibition at the top dose; a quarter of the inactives give rising signals
Target sequence (P00811 whole entry, looked up): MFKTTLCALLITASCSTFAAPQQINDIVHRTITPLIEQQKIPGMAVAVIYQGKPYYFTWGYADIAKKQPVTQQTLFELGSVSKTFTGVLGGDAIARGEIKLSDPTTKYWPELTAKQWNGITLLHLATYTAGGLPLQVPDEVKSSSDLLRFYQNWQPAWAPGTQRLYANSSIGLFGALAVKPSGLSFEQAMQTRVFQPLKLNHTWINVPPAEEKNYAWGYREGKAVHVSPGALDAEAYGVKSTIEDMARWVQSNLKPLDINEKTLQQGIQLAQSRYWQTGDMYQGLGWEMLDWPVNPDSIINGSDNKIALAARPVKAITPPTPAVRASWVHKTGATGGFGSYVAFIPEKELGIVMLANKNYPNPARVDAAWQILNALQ
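Enzyme, pH 7.0 phosphate. Compound titrations were pre-incubated with AmpC for 15 min at room temperature before nitrocefin (stock 800 uM) addition; product formation was recorded at 480 nm every 20 s for 4 min.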
Active calls of the source: *; [ ] = dose if it differs, or a comment. Potency is the fitted concentration of half-maximal effect. A portion of the library (hit frequency here may not be typical).

SMILES | AmpC nodet inh
Clc1ccccc1-c1cncnc1NCCc1cnc[nH]1 | -14.3%
C=CCSc1nnc2c(n1)OC(c1cccnc1)N(C(C)=O)c1ccccc1-2 (stereo not drawn) | -5.3%
CCOC(=O)C(NC(=O)OC(C)C)(Nc1nccs1)C(F)(F)F (stereo not drawn) | 8.6%
CCOC(=O)CSC1=Nc2ccccc2C2=NC(CC(=O)NCc3ccc(OC)cc3)C(=O)N12 (stereo not drawn) | 32.5%
O=S(=O)(c1ccccc1)N1CCC[C@@]2(CCN(c3cccc(-c4ccccc4)c3)C2)C1 | 63.0%
CCOC(=O)C1CCCN(C(=O)c2cncc(Br)c2)C1 (stereo not drawn) | 4.5%
C[C@@]12CC[C@@H]3c4ccc(O)cc4CC[C@H]3[C@H]1CC[C@H]2O | 2.9%[12.8 µM]
O=C(c1ccco1)N1CCN(CC(O)COc2ccc3oc4ccccc4c3c2)CC1 (stereo not drawn) | 137.6%
O=C(c1cc2c(s1)CCC2)N1C(=O)c2ccccc2S1(=O)=O | -17.2%
CCOC(=O)c1coc(CNC(=O)c2c(C)oc3c2CCCC3)c1 | 24.0%
CC(=O)c1ccc(NC(=O)Cn2nc(C)cc2C)cc1 | 11.4%
CCC1C(=O)N=C(SCC(=O)Nc2cccc3ccccc23)NC1=O (stereo not drawn) | -8.5%
CCNc1ncc2nc(-c3cccs3)c(=O)n(Cc3cccs3)c2n1 | -1.8%
Cc1[nH]c2ccccc2c1-c1nc2ccccc2[nH]1 | -17.8%
C1CCc2nnc(-c3nnc4n3CCCCC4)n2CC1 | 4.1%
CCOC(=O)C1=C(N)n2c(s/c(=C\c3cccs3)c2=O)=C(C(=O)OCC)C1c1cccs1 (stereo not drawn) | 1.4%
Fc1ccc(Nc2ncncc2-c2ccoc2)cc1 | 12.9%
COc1cc(C2C3CN(C)CC=C3C(C#N)=C(N)C2(C#N)C#N)ccc1OC(C)C (stereo not drawn) | 52.7%
COc1ccc(C)cc1NC(=O)NCCC1=CCCCC1 | -0.7%
CC1=C(C#N)C(c2ccc3ncccc3c2)C(C#N)=C(C)N1 | 4.5%
Cc1cc(C)nc(/N=C2\NC(=O)CC3C(=O)NCCN23)n1 (stereo not drawn) | -12.8%
CCOC(=O)CCCNC(=O)CN1C(=O)NC2(CCCCCC2)C1=O | -10.1%
O=C(NCc1ccccn1)C1CCCN(S(=O)(=O)c2ccccc2)C1 (stereo not drawn) | 14.7%
CN1CC2(Cc3c1ccc1ccccc31)C(=O)OC(C)(C)OC2=O | 17.6%
O=C(CSC1=NCCS1)N1CCCCCC1 | -16.3%
CCOc1nc(C)ccc1-c1noc(-c2ccco2)n1 | 15.0%
COC(=O)C1(C)C=C2C(=C(C)C(=O)C2C)CN1 (stereo not drawn) | -1.0%
Cn1c(N)c(C(=O)COC(=O)CCCc2c[nH]c3ccccc23)c(=O)n(C)c1=O | 37.3%
Nc1ncnc2c1ncn2CCNCCc1ccccc1 | -16.4%
COc1ccc(C2(C(=O)NCC3CCCO3)CCOCC2)cc1 (stereo not drawn) | 16.7%
CC(=O)N1c2c(cc(Br)cc2S(=O)(=O)NCC2COc3ccccc3O2)CC1C (stereo not drawn) | 19.6%
CCCCCCC(=O)NCC(=O)OCC(=O)c1ccccc1 | 21.7%
CC(C)c1nc(-c2c(N)n(C)c(=O)n(C)c2=O)sc1C(=O)C(C)(C)C | 23.6%
COCCCNC(=O)CN(c1cccc(Cl)c1)S(C)(=O)=O | -5.7%
CN1C=CC(=C2C(=O)c3ccccc3C2=O)C=C1 | -1.9%
CCN(CC)S(=O)(=O)c1cccc(-c2nnc(SC(C)C(=O)NCCC3=CCCCC3)o2)c1 (stereo not drawn) | 52.1%
COc1cccc(-c2noc(C3CCCN(C(=O)Cc4ccccc4)C3)n2)c1 (stereo not drawn) | 80.2%
O=C(NCC1COc2ccccc2O1)c1ccc(NC(=O)C2CCCO2)cc1 (stereo not drawn) | 8.4%
Cn1nc(-c2ccc(OCC(=O)Nc3cccnc3)cc2)c2ccccc2c1=O | 37.9%
CCOC(=O)C1CCN(Cc2nc3ccccc3c(=O)n2-c2ccc(OCC)cc2)CC1 | 80.5%
Cc1ccc(C(=O)CSc2nnc(-c3ccco3)n2CC2CCCO2)cc1 (stereo not drawn) | 75.5%
CCc1nc(SCC(=O)NCc2ccco2)c2c(=O)n(C)c(=O)n(C)c2n1 | -1.3%
CS(=O)(=O)Nc1cccc(-c2nccc(-n3ccnc3)n2)c1 | -8.1%
COc1ncc2nc(-c3ccc(Cl)cc3)c(=O)n(CCc3ccccc3)c2n1 | -4.8%
COc1ccc(OC)c(S(=O)(=O)NCc2cn3c(C)csc3n2)c1 | 5.4%
COc1ccccc1NC(=O)c1ccccc1NS(=O)(=O)N1CCCC1 | -5.5%
O=C(C1CCCN(S(=O)(=O)c2cccc3nonc23)C1)N1CCC(Cc2ccccc2)CC1 (stereo not drawn) | 85.5%
CCCCn1c(SCc2cc(=O)[nH]c3ccccc23)nc2c1c(=O)n(C)c(=O)n2C | 36.1%
CC12CN(C(=O)c3ccccc3)C3(C#N)CC1CCC23C (stereo not drawn) | 16.5%
O=C(COc1ccccc1Cl)Nc1ccc2c(c1)OCCO2 | 24.1%
CCCCC[C@H](O)/C=C\[C@H]1[C@H](C/C=C\CCCC(=O)O)[C@@H](O)C[C@H]1O (tested in a mixture with another compound) | 11.7%[12.8 µM]
Cc1cccc(C2CC(c3ccccc3)Nc3nc(N)nn32)c1 (stereo not drawn) | 24.6%
C=CCN(C(=O)CNS(=O)(=O)c1ccccc1)C(C(=O)NCCOC)c1ccncc1 (stereo not drawn) | 8.9%
COc1ccc(-c2nc(C#N)c(NCCc3ccccc3)o2)cc1OC | 84.6%
COc1cc(S(=O)(=O)N(Cc2ccco2)C2CCCC2)ccc1-n1cnnn1 | 43.4%
C[C@@]12CC[C@@H]3c4ccc(O)cc4CC[C@H]3[C@H]1C[C@@H](O)[C@H]2O | 2.2%[12.8 µM]
Cc1c(N(C)C)nc2ccccc2c1N | -5.2%
Cc1nc2ccc(S(=O)(=O)NCC(=O)N3CCN(c4ccccn4)CC3)cc2s1 | 20.0%
Cc1oc(-c2cccc(Cl)c2)nc1CN1CCCC(C(=O)NCc2ccco2)C1 (stereo not drawn) | 121.8%
CSc1nc(=NC(C)=O)ss1 | 83.5%

An excerpt of these results, tab-delimited:
SMILES	AmpC nodet inh
Clc1ccccc1-c1cncnc1NCCc1cnc[nH]1	-14.3%
C=CCSc1nnc2c(n1)OC(c1cccnc1)N(C(C)=O)c1ccccc1-2 (stereo not drawn)	-5.3%
CCOC(=O)C(NC(=O)OC(C)C)(Nc1nccs1)C(F)(F)F (stereo not drawn)	8.6%
CCOC(=O)CSC1=Nc2ccccc2C2=NC(CC(=O)NCc3ccc(OC)cc3)C(=O)N12 (stereo not drawn)	32.5%
O=S(=O)(c1ccccc1)N1CCC[C@@]2(CCN(c3cccc(-c4ccccc4)c3)C2)C1	63.0%
CCOC(=O)C1CCCN(C(=O)c2cncc(Br)c2)C1 (stereo not drawn)	4.5%
C[C@@]12CC[C@@H]3c4ccc(O)cc4CC[C@H]3[C@H]1CC[C@H]2O	2.9%[12.8 µM]
O=C(c1ccco1)N1CCN(CC(O)COc2ccc3oc4ccccc4c3c2)CC1 (stereo not drawn)	137.6%
O=C(c1cc2c(s1)CCC2)N1C(=O)c2ccccc2S1(=O)=O	-17.2%
CCOC(=O)c1coc(CNC(=O)c2c(C)oc3c2CCCC3)c1	24.0%
CC(=O)c1ccc(NC(=O)Cn2nc(C)cc2C)cc1	11.4%
CCC1C(=O)N=C(SCC(=O)Nc2cccc3ccccc23)NC1=O (stereo not drawn)	-8.5%
CCNc1ncc2nc(-c3cccs3)c(=O)n(Cc3cccs3)c2n1	-1.8%
Cc1[nH]c2ccccc2c1-c1nc2ccccc2[nH]1	-17.8%
C1CCc2nnc(-c3nnc4n3CCCCC4)n2CC1	4.1%
CCOC(=O)C1=C(N)n2c(s/c(=C\c3cccs3)c2=O)=C(C(=O)OCC)C1c1cccs1 (stereo not drawn)	1.4%
Fc1ccc(Nc2ncncc2-c2ccoc2)cc1	12.9%
COc1cc(C2C3CN(C)CC=C3C(C#N)=C(N)C2(C#N)C#N)ccc1OC(C)C (stereo not drawn)	52.7%
COc1ccc(C)cc1NC(=O)NCCC1=CCCCC1	-0.7%

Continued:
SMILES | AmpC nodet inh
COc1cccc(-c2nnc(SCc3nc4ccccc4[nH]3)n2N)c1 | 7.3%
COC(=O)c1cn(-c2ccccc2)nc1-c1cccnc1 | 39.4%
O=[n+]1c2c(n([O-])c3cc(Br)ccc31)CCC2 | -8.3%
CCCOc1ccc(/C(O)=C2/C(=O)C(=O)N(CCN(C)C)C2c2ccc(O)c(OC)c2)cc1 (stereo not drawn) | -11.1%
COc1ccc(CN2C(=O)NC3(CCCCCC3)C2=O)cc1F | -2.3%
Cc1nnc(NCc2ccco2)c2ccccc12 | -19.4%
O=C(Nc1ccccc1)Nc1ccccc1C(=O)NCc1ccco1 | -23.4%
CC(C)=CC(=O)Nc1ccc(Br)cc1 | -3.4%
O=S1(=O)N=C(N2CCc3ccccc3C2)c2ccccc21 | -1.3%
O=C(CNC(=O)c1ccco1)OC(C(=O)c1ccccc1)c1ccccc1 (stereo not drawn) | 7.2%
Cn1c(=O)oc2cc(S(=O)(=O)N3CCN(c4cccc(Cl)c4)CC3)ccc21 | 11.2%
O=c1c(-c2ccc(F)cc2)nc2cnc(Nc3ccccc3)nc2n1C[C@H]1CCCO1 | 0.0%
CCc1ccc(Nc2cc(C)nc3nc(C)nn23)cc1 | 40.5%
O=C(Oc1cccc(N2C(=O)CCC2=O)c1)C1CC(=O)N(c2ccc(Br)cc2)C1 (stereo not drawn) | 91.8%
O=C(CCS(=O)(=O)Cc1ccccc1)NCc1ccco1 | 7.5%
C=CCOC(=O)C1=C(C)NC(SCC(=O)NC(=O)OCC)=C(C#N)C1c1cccnc1 (stereo not drawn) | 24.7%
CCN1C[C@@]2(COC)CC[C@H](O)[C@@]34[C@@H]2C[C@@H]([C@@H]13)[C@]1(O)C[C@@H](OC)C2C[C@H]4[C@H]1[C@H]2OC(C)=O | 1.5%[12.8 µM]
C=C1[C@@H]2C[C@@]3([C@H]1O)[C@H]1C[C@@H]4[C@@]5(C)CC[C@H](O)[C@]4([C@H]1N(CC)C5)[C@H]3C[C@H]2O | -16.4%[12.8 µM]
COc1cccc(NC(=O)C2CC(=O)N=C(N)S2)c1 (stereo not drawn) | -6.8%
COCCNc1nc(-c2ccccc2C(F)(F)F)nc2ccccc12 | 20.3%
COC(=O)c1cc(NC(=O)CC2SCCNC2=O)cc(C(=O)OC)c1 (stereo not drawn) | -4.5%
COc1cccc(-c2nnc(SCC(=O)N(C(C)C)C(C)C)o2)c1 | 51.4%
Cc1cc(C(=O)COC(=O)c2n[nH]c3ccccc23)c(C)n1C | 8.4%
COc1ccc(C2C=C(c3ccccc3)Nc3nc(CCCO)nn32)cc1 (stereo not drawn) | 90.0%
CC(C)CCOCC(=O)Nc1cccc(C(=O)O)c1 | -6.0%
O=C(O[C@@H](C(=O)O)[C@@H](OC(=O)c1ccccc1)C(=O)O)c1ccccc1 | -6.7%
COc1cccc(NC(=O)C2C3CC4OC(=O)C2C4C3)c1 (stereo not drawn) | 0.0%
COCCCNC(=O)C1CC(=O)N(C2CCCC2)C1 (stereo not drawn) | -5.5%
CCCC(=O)Nc1nc(C(=O)OCC)cs1 | -5.5%
O=C(COc1ccc(-n2cnnn2)cc1)N1CCN(c2ccc(F)cc2)CC1 | 37.0%
O=c1c2c3c(sc2nc2sc(C4CC4)nn12)CCCC3 | 5.4%
COc1ccc(OC)c(S(=O)(=O)NCCc2cn3ccsc3n2)c1 | 11.6%
Cc1ccc2c(c1)N(CC(=O)NC1CCCCC1C)C(=O)CO2 (stereo not drawn) | 9.5%
c1cc2[nH]snc2c2nc(C3CC3)nc12 | -6.6%
O=C(COC(=O)C1=COCCO1)Nc1ncc(C(F)(F)F)cc1Cl | -2.3%
Cc1nnc(NC(=O)C2(c3ccccc3)CCOCC2)s1 | 24.4%
CCC(CO)NCCNC(CC)CO (stereo not drawn) | -19.2%
CCCOC(=O)Nc1cc(OC)c(Cl)cc1OC | 2.9%
CC(C)(C)NCCCCOc1ccccc1F | -2.0%
COc1cc(C(=O)Nc2ccc(NC(=O)C(C)C)nc2)cc(OC)c1OC | -1.7%
COCCNC(=O)C1CC(=O)N(CCc2ccccc2)C1 (stereo not drawn) | 0.6%
CSc1ccc(CN2CCC(O)CC2)cc1 | -6.9%
CCc1cc2cc(C)cc(C)c2nc1SCC(=O)N1CCN(C(=O)c2ccco2)CC1 | 140.2%
FC(F)(F)c1cnc2c(c1)Nc1ccccc1S2 | -4.9%
O=C(CCN1CCc2ccccc2C1)Nc1cccc(F)c1 | -3.3%
O=C(CCn1nnc(-c2cccs2)n1)NC1CCCCC1 | 4.4%
Cc1cc(C(=O)CN2C(=O)c3ccccc3S2(=O)=O)c(C)n1-c1ccccc1 | 17.7%
CCOC(=O)c1ccc(NS(=O)(=O)CC)cc1 | 1.5%
COC(=O)NC1(C(F)(F)F)NC(=O)N(C2CCCCC2)C1=O (stereo not drawn) | 3.7%
Oc1c(C(c2ccccc2)N2CCc3ccccc3C2)sc2ncnn12 (stereo not drawn) | 53.5%
CCc1ccc(NC(=O)N(CCCOC(C)C)C2CCN(C(C)=O)CC2)cc1 | 112.2%
CCN(CCCNC(=O)C1CCN(S(=O)(=O)CC)CC1)c1cccc(C)c1 | 68.6%
CCCCNc1nc(C)nc2c1nc(-c1ccccc1)n2CCCN1CCCCC1C (stereo not drawn) | 61.7%
Cc1cccc2cc(CN(Cc3ccc4c(c3)OCO4)Cc3nnnn3C3CCCC3)c(=O)[nH]c12 | 98.3%
CCC(Sc1ncccc1C(=O)O)C(=O)N1CCCC1 (stereo not drawn) | -13.1%
NC(N)=NCCN1CCCCCCC1 | -17.5%[12.8 µM]
CN(C)Cc1ccccc1-c1cncnc1Nc1ccccc1 | -14.6%
